Screening data (PubChem BioAssay)
TsaE inh: displaces an ADP probe from E. coli YjeE (TsaE) | P0AF67 | purified YjeE, fluorescence polarisation of a bound ADP probe | Potency, µM | hit rate 0.05% among 71,000; active = well fitted falling curve; inconclusive = weaker or top-dose-only fall, or a rising curve; inactive = flat or poorly fitted curve;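 note: top concentration of the series not given in the record; excess ADP was the control for the full effect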
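Purified YjeE (10 uM) with BODIPY Texas Red-labeled ADP probe (2 uM); compounds pin-transferred, 15 min at room temperature. Binding inhibition read as decreased fluorescence polarization; ADP titration as control.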
PK Bst: alters activity of Bacillus stearothermophilus pyruvate kinase; AID 361; partly purified Bacillus stearothermophilus pyruvate kinase, luminescence ATP production; ribose 5-phosphate activator present at AC10; hit rate 1.2% among 51,000; Potency, µM; in the data active means potency below about 11 µM; inconclusive means mostly about 12 µM to 25 µM; inactive means weaker than that;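 the screen sought inhibitors and activators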;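 note: potency is the fitted concentration of half-maximal effect; scaled between full activation by ribose 5 phosphate and full inhibition by luteolin; about four in five hits inhibit and the cells do not say which; series up to 57 µM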
Numbers without * were called inactive; i = inactive; ? = inconclusive; . = no result given. This is a subset, so the mix of outcomes need not match the whole.

Every second line gives: TsaE inh | PK Bst
> CCOC(=O)c1c(C)c(C(=O)Nc2cc(F)ccc2F)c(C)n1C
 : i | >57
> COc1ccc(OC)c2[nH]c(=O)c(CCNC(=O)C(C)(C)C)cc12
 : i | .
> CCc1c(C(C)O)oc2ccc3c(C)cc(=O)oc3c12 (stereo not drawn)
 : i | .
> CC(C)OC(=O)c1c(N)sc2c1CCCC2
 : i | >57
> CCc1nnc2sc(-c3ccc(NC(=O)c4ccco4)cc3)nn12
 : i | .
> COc1ccccc1N1CCN(c2cc(N3CCCC3)nc(C)n2)CC1
 : i | >57
> CC(C)c1nnc(NC(=O)CCN2C(=O)c3ccccc3C2=O)s1
 : i | .
> Cc1ccc2occ(CN3CCN(c4ccccc4)CC3)c(=O)c2c1
 : i | .
> CCOc1ccc(CN(Cc2ccco2)C(c2cccs2)c2nnnn2C(C)(C)C)cc1 (stereo not drawn)
 : i | >57
> CN(C)c1ccc(-n2cc3c(=O)n(C)c(=O)n(C)c3c2)cc1
 : i | i
> C=C(CC1([C@@H](NP(=O)(c2ccccc2)c2ccccc2)[C@H]2C[C@@H]2CCN(C(=O)OCC)S(=O)(=O)c2ccc(C)cc2)CC1)c1ccccc1
 : i | .
> CCSC1=C(C#N)C(c2cccc(Br)c2)CC(=O)N1 (stereo not drawn)
 : i | >57
> COC(=O)c1ccc(/C(O)=C(\C#N)c2nc3ccccc3s2)cc1
 : i | .
> CCOC(=O)c1c(C)n(C)c2ccc(OC(C)C(=O)OC)cc12 (stereo not drawn)
 : i | >57
> COc1ccc(-c2nnc(-c3cccs3)o2)cc1OC
 : i | .
> NS(=O)(=O)c1ccc(N=Nc2ccc(O)c(C(=O)O)c2)cc1
 : i | .
> COc1ccccc1NC1C=CS(=O)(=O)C1 (stereo not drawn)
 : i | .
> CC(C)N(C(=O)Cn1cnc2c(cnn2-c2ccccc2Cl)c1=O)C(C)C
 : i | >57
> O=C(c1ccco1)N1CCC[C@@]2(CCN(c3ncccn3)C2)C1
 : i | .
> Cc1ccccc1NC(=O)Cn1c(C)nc2ccc(NC(=O)C3CC3)cc2c1=O
 : i | >57
> O=C(CCC(=O)N1CCc2ccccc2C1)N1CCN(S(=O)(=O)c2ccccc2)CC1
 : i | >57
> COc1cc(NC(=O)c2ccccc2)cc(OC)c1
 : i | >57
> COc1cccc(Nc2ncc3ncc(=O)n(C)c3n2)c1
 : i | .
> O=C(Cn1ncc2c(=O)oc3ccccc3c21)Nc1nc2ccccc2s1
 : i | >57
> CCn1c2ccccc2c2nnc(SCC(=O)Nc3ncccn3)nc21
 : i | .
> CCOC(=O)C1=C[C@]2(CC)CCCN3CCc4c(n1c1ccccc41)[C@@H]32
 : . | >26
> COCCCn1c(-c2ccsc2)nc2c1c(=O)[nH]c(=O)n2Cc1ccccc1
 : i | >57
> Cc1ccc(-n2ncc3c(=O)[nH]c(SCC(=O)N4CCCc5ccccc54)nc32)cc1
 : i | >57
> CCc1ccc(Cn2nnc(C(=O)NCc3ccccc3OC)c2N)cc1
 : i | .
> CCCCSc1nnc(-c2ccc(NC(C)=O)cc2)n1C
 : . | >26
> CCOC(=O)N1CCN(c2c(N3CCN(c4cccc(C(F)(F)F)c4)CC3)c(=O)c2=O)CC1
 : i | >57
> Cc1cccc(CCNC(=O)CN(C)S(=O)(=O)c2ccc3c(c2)c(=O)n(C)c(=O)n3C)c1
 : i | .
> O=C1OCCC1Sc1nnc(-c2ccco2)o1 (stereo not drawn)
 : i | >57
> CC(C)CNS(=O)(=O)c1ccc(S(=O)(=O)N2CCN(CCC#N)CC2)cc1
 : i | .
> COC(=O)c1cc(-c2ccc(Br)cc2)on1
 : i | .
> O=C(CCC(=O)c1cccs1)OCC(=O)N1CCN(C(=O)c2ccco2)CC1
 : i | >57
> CCCCOc1ccc(OCCCC)c2c1NC1(N2)C(=O)N(C(C)=O)c2ccccc21
 : i | >57
> Cc1cc2c(c(=O)n1Cc1ccc3c(c1)OCO3)C(c1cccnc1)C(C#N)=C(N)O2 (stereo not drawn)
 : i | .
> CN1CCC(=C2c3ccccc3Sc3ccccc32)CC1
 : i | .
> CCOC(=O)Cn1c(=O)oc2cc(S(=O)(=O)N3CCn4c3nc3ccccc34)ccc21
 : i | .
> Cn1nnnc1SCC(=O)NCc1ccco1
 : i | >57
> COc1ccccc1NS(=O)(=O)c1ccc(Br)s1
 : i | .
> COc1cc(/C=C\c2ccc(OC)cc2OC)cc(OC)c1
 : i | .
> CC(=O)c1ccc(Cl)c(Cl)c1Cl
 : i | .
> COc1ccc(O)cc1
 : i | .
> C#Cc1ccc(C(=O)Nc2cc(C(N)=O)ccc2N2CCOCC2)cc1
 : i | .
> COc1ccc(N(CN2C(=O)c3ccccc3C2=O)C(=O)C(C)C)cc1
 : i | >57
> CCOC(=O)N1CCC(NC(=O)C2CCN(Cc3nc(-c4ccc(CC)cc4)oc3C)CC2)CC1
 : i | .
> Cc1cc(C)cc(OCc2ccc(C(=O)O)o2)c1
 : i | >57
> Cc1nccn1-c1c2c(c(C#N)c3nc4ccccc4n13)CCC2
 : i | .
> Cc1ccc(Nc2nc(CSc3nnnn3-c3ccccc3)cc(=O)[nH]2)cc1
 : i | >57
> CCN(CC)c1nc2ccccc2n2cnnc12
 : i | i
> O=C(O)CSc1nc2c(c(=O)[nH]1)CCCC2
 : i | >57
> Cc1cc(C)c(N2C(=NC(=O)CCCC(=O)O)SC3CS(=O)(=O)CC32)c(C)c1 (stereo not drawn)
 : i | >57
> O=S(NCc1ccccc1)C12CC3CC(CC(C3)C1)C2 (stereo not drawn)
 : i | >57
> O=C(O)NCc1ccccc1 (tested in a mixture with another compound)
 : i | .
> COc1ccc(C2CC(c3ccccc3Cl)Nc3ncnn32)cc1OC (stereo not drawn)
 : i | i
> Cc1cc(C)c(C)c(OCc2nc(-c3cccnc3)no2)c1
 : i | >57
> O=C(NC1CCCCCC1)c1cc2n(n1)C(C(F)(F)F)CC(c1ccco1)N2 (stereo not drawn)
 : i | >57
> Cc1ccccc1-c1nnc2s/c(=C\c3ccc(N(C)C)cc3)c(=O)n12
 : i | >57

(more compounds)
Every second line gives: TsaE inh | PK Bst
> COc1ccc(-n2c(SC)nc(O)cc2=O)cc1
 : i | .
> CCN(CC)CCNC(=O)CCn1c(=S)[nH]c2cc3c(cc2c1=O)OCO3
 : i | >57
> CCOc1cc(C)nc(N2CCN(C3CCCCC3)CC2)n1
 : i | >57
> O=c1c2[nH]c3ccc(F)cc3c2ncn1CCN1CCN(Cc2ccccc2)CC1
 : i | .
> COc1cccc(OC)c1C(=O)N1CCN(Cc2ccccc2C)CC1
 : i | .
> COc1ccc(CCCc2nnc(SCC(=O)Nc3cc(C)c(C)cc3Br)o2)cc1
 : i | >57
> COc1ccc(-n2c(O)c(C=NC3CC3)c(=O)[nH]c2=O)cc1
 : i | >57
> CC(=O)Oc1ccccc1C1OC(=O)c2ccccc2N1C(C)=O (stereo not drawn)
 : . | >11
> O=C(CSc1nnc(CNC(=O)c2cccs2)o1)c1ccccc1
 : i | >57
> Cc1cc(Cl)c(S(=O)(=O)NC2CCCCC2)cc1OCC(=O)Nc1nncs1
 : i | i
> Cc1ccc2nc3c(cc(C#N)c(=O)n3-c3nccs3)c(=O)n2c1
 : i | >57
> N#CC1=C(N)Oc2n[nH]c(-c3cccs3)c2C1c1cccnc1 (stereo not drawn)
 : i | >57
> O=C(c1cccc(F)c1)N1CCC2(CCCN(Cc3cc(C(F)(F)F)cc(C(F)(F)F)c3)C2)CC1
 : i | .
> COc1cc(-c2nnc3n2N=C(c2ccccc2)CS3)cc(OC)c1OC
 : i | >57
> Cc1nc(N2CCN(Cc3ccccc3)CC2)nc2c1C(=O)CC(C)C2 (stereo not drawn)
 : i | .

Filtered by structure, the entries above containing a tert-butyl group
Every second line gives: TsaE inh | PK Bst
> COc1ccc(OC)c2[nH]c(=O)c(CCNC(=O)C(C)(C)C)cc12
 : i | .
> CCOc1ccc(CN(Cc2ccco2)C(c2cccs2)c2nnnn2C(C)(C)C)cc1 (stereo not drawn)
 : i | >57

One compound at a time, from the list above. Order of screens: TsaE inh	PK Bst
Listed for `Cc1nc(N2CCN(Cc3ccccc3)CC2)nc2c1C(=O)CC(C)C2` (stereo not drawn) = i	.
Listed for `COc1cccc(OC)c1C(=O)N1CCN(Cc2ccccc2C)CC1` = i	.
Listed for `COc1ccc(CCCc2nnc(SCC(=O)Nc3cc(C)c(C)cc3Br)o2)cc1` = i	>57

Next results follow.
Every second line gives: TsaE inh | PK Bst
> FC(F)(F)c1ccccc1-c1cncnc1NCCN1CCOCC1
 : i | .
> CCN(CC)CCNC(=O)c1ccccc1N
 : . | >26
> O=C(COC(=O)c1cccnc1Nc1cccc(C(F)(F)F)c1)NCCN1C(=O)CSC1=O
 : i | >57
> Cc1cc(C)nc(NS(=O)(=O)c2ccc(NC(=O)CCCN3C(=O)c4ccccc4C3=O)cc2)n1
 : i | .
> Nn1c(SCc2nc3ccccc3[nH]2)nnc1C1CCCCC1
 : i | >57
> CCCCOC(=O)Cn1c(=N)n(CCN2CCOCC2)c2ccccc21
 : i | >57
> O=C(Nc1ccc2c(c1)OCO2)C1CC(c2c(F)cccc2Cl)=NO1 (stereo not drawn)
 : i | >57
> Cc1cc(C)cc(N(C(C)C(=O)N2CCCCC2)S(C)(=O)=O)c1 (stereo not drawn)
 : i | >57
> COCCn1c(=O)c(-c2cccs2)nc2cncnc21
 : i | .
> CN(Cc1nc2ccccc2n1C)S(=O)(=O)c1ccc(Cl)cc1
 : i | >57
> CCCSc1nc2c(cnn2-c2ccccc2)c(=O)[nH]1
 : i | .
> O=C(O)c1c2ccccc2cc2ccccc12
 : i | .
> CCOC(=O)c1ccccc1NC(=O)c1c(O)c2ccccc2n(CC)c1=O
 : i | >57
> O=C(NCCN1CCCCCC1)C1CCN(S(=O)(=O)N2CCOCC2)CC1
 : i | >57
> CN1CCN(c2cc(-c3ccccc3Cl)ncn2)CC1
 : i | .
> O=C(OCc1ccccc1Cl)c1ccc(-n2cnnc2)cc1
 : i | >57
> CC1(C)NC(=O)N(CNc2cc(Cl)ccc2Cl)C1=O
 : i | >57
> O=C(O)c1ccccc1
 : i | .
> COc1ccc(CCNS(=O)(=O)c2cccc3nsnc23)cc1OC
 : i | ?
> COc1ccc(CNc2ccnc(-c3ccc(N(C)C)cc3)n2)c(OC)c1
 : i | .
> COC(=O)N1CCC2(CCCN(C(c3ccccc3)c3ccccc3)C2)CC1
 : i | .
> COc1ccc(CCn2c(=N)c(C#N)cc3c(=O)n4ccccc4nc32)cc1
 : . | >26
> CC(=O)N1CCCc2cc(S(=O)(=O)N(C)Cc3ccccc3)ccc21
 : i | >57
> COc1cccc(/C=N/n2c(CO)nc3ccccc32)c1OC
 : i | i
> CCc1c(C(=O)Nc2ccc(OC)cc2)[nH]c(C)c1C(C)=O
 : i | >57
> O=C(NCCN1CCOCC1)c1cc(=O)[nH]c2ccc(Br)cc12
 : i | >57
> COC(=O)c1ccc(C(=O)OC)c(NC(=O)c2oc(C)nc2C)c1
 : i | >57
> c1ccc(-c2nnc(-c3ccccn3)nn2)nc1
 : i | 7.1*
> COc1cc2c(cc1OC)-c1cc3nc4ccccc4nc3n1C(C)(C)C2
 : i | .
> CC1Cc2ccccc2N1C(=O)C1CCCN(S(=O)(=O)c2cccc3cccnc23)C1 (stereo not drawn)
 : i | .
> Cc1cc2c(=O)n(Cc3ccco3)c(SCC(=O)NCc3ccco3)nc2s1
 : i | >57
> CN(C)c1ncc2ncc(=O)n(C[C@H]3CCCO3)c2n1
 : i | .
> COc1cc2c(cc1OC)C(c1ccccc1O)N(C1CC(=O)N(c3ccccc3)C1=O)CC2 (stereo not drawn)
 : i | .
> CCCCCn1c(CN2CCN(c3cccc(Cl)c3)CC2)nc2c1c(=O)[nH]c(=O)n2C
 : i | >57
> O=C(NC1CCCc2ccccc21)c1cccnc1 (stereo not drawn)
 : i | .
> COc1cc2c3cc1Oc1c(OC)c(OC)cc4c1[C@@H](Cc1ccc(O)c(c1)Oc1ccc(cc1)C[C@@H]3N(C)CC2)CN(C)C4
 : i | .
> CCCC[C@H]1C[C@@H]1[C@@H]1N(P(=O)(c2ccccc2)c2ccccc2)[C@](CO)(c2ccccc2)CC12CC2
 : i | .
> Cc1ccc(-c2nc(S(=O)(=O)c3ccc(F)cc3)c(SCC(=O)NCC3CCCO3)o2)cc1 (stereo not drawn)
 : i | >57
> CCOC(=O)CCc1c(C)nc(SCC(=O)O)c(C#N)c1C
 : i | >57
> O=C(Nc1cccc(S(=O)(=O)C(F)F)c1)c1ccc(S(=O)(=O)N2CCOCC2)cc1
 : i | >57
> COc1ccc(CCNC(=O)c2cnn(-c3ccc(C)c(C)c3)c2NC(=O)c2ccco2)cc1OC
 : i | >57
> CC1(C)CC(=O)C(C=NCCCn2ccnc2)=C(O)C1
 : i | .
> CCn1c(=O)c2cc(C(=O)N3CCCC3)sc2c2ccccc21
 : i | .
> Cc1ccc(C)c2[nH]c(=O)c(CN(CC3CCCO3)C(=O)NC3CCCCC3)cc12 (stereo not drawn)
 : i | >57
> CC1CN(CCC(=O)Nc2ccc3c(c2)CCC3)CC(C)O1 (stereo not drawn)
 : i | >57
> COc1cc2c(=O)nc3n(c2cc1OC)C(c1ccccc1)N=C(N)N3 (stereo not drawn)
 : i | >57
> CCC(C(=O)NC1CCCC1)N(C(=O)c1snc(C(N)=O)c1N)c1ccc2c(c1)OCCO2 (stereo not drawn)
 : i | >57
> C=CCNC(=O)c1c(N)n(-c2ccc3c(c2)OCO3)c2nc3ccccc3nc12
 : i | >57
> CC(C)CN(C)c1nc(N)c(C(=O)N=C(N)N)nc1Cl
 : i | .
